Rce1 inhib – yeast Rce1p protease inhibitors, primary screen, biochemical, fluorescence, cell-free homogeneous. CAAX prenyl protease 2 (Saccharomyces cerevisiae (strain ATCC 204508 / S288c)), Q03530. yeast membranes, quenched prenylated peptide cleavage fluorescence. calls only. 0.27% of 290,000 active;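 active = fall in fluorescence gain of 50% or more versus controls, with final raw signal at or below 3038400; inconclusive = same 50% fall but final raw signal above 3038400; inactive = fall in fluorescence gain under 50%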;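 note: plate controls were neutral control wells for no effect and wells lacking membranes for full effect; tested at 10 µM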
MT1-MMP act inh – blockers of MT1-MMP proenzyme processing, primary screen, HT1080 RFP-PRO-GFP cells, GFP/RFP fluorescence. Matrix metalloproteinase-14 (Homo sapiens), P50281. GFP/RFP ratio fluorescence, overnight; percent of plate control window, DMSO zero. GFP/RFP ratio change, % at 20 µM. 0.061% of 360,000 active;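 active = GFP/RFP ratio change of at least 30% with cell ATP level not reduced by more than half and red fluorescence within 50% of control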; note: strong numbers were not always called active
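Compound: 20 µM single dose, 1% DMSO / System: HT1080 RFP-PRO-GFP cells / Controls: DMSO and RFP-L50D-GFP cell wells / Read-out basis: GFP/RFP fluorescence ratio / Schedule: overnight compound exposure at 37 °C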
PABP polyA inh – PABP poly(A) RNA binding inhibitors, primary screen, biochemical, fluorescence polarization, uHTS. 1% of 290,000 active. AID 2014, 2009. Polyadenylate-binding protein 1 (Homo sapiens), P11940. inhibition, % at 35 µM;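 active = 50% or more with normal probe brightness, or confirmed in later tests; inconclusive = above 50% with abnormal brightness, or retests that disagree; inactive = below 50% or failed in later tests; about a fifth of its hits are not listed in these tables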;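 note: calls also rest on retests at 20 µM and on dose response follow-up; controls were probe without protein and protein plus probe with vehicle; some compounds called inactive have numbers as strong as hits; many hits fall short of the cut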
Target sequence (P11940 whole entry, looked up): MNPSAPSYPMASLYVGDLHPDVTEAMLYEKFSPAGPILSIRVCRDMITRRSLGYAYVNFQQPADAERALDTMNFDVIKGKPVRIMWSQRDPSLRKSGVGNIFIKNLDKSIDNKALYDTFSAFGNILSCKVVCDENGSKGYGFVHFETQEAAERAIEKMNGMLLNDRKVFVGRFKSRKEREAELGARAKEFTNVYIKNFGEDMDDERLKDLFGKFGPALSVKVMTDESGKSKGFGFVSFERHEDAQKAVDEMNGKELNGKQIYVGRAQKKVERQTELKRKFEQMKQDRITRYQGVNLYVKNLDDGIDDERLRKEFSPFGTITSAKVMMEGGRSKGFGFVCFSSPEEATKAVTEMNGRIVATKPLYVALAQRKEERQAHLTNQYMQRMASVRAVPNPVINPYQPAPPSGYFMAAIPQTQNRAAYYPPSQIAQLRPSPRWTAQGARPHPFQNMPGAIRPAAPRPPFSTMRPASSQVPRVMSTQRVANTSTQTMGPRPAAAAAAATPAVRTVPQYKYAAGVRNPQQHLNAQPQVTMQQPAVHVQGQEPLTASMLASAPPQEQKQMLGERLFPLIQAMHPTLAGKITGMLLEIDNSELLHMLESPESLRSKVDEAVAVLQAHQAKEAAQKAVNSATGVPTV
CSC inhib – cancer stem cell viability inhibitors, primary screen, luminescence | inhibition, % at 7.5 µM | 1.1% of 300,000 active | cancer stem cell-like cells viability;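 active = mean at 75% or more and at least half the replicates too; inconclusive = mean and replicates disagree; tested in HMLE shEcad cells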;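 note: 0% = median of negative and 100% = median of positive control wells; the first replicate is given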
eIF4H FP inh – human eIF4H binding inhibitors, primary screen, translation initiation inhibitor project, biochemical, uHTS, fluorescence polarization; 0.94% of 290,000 active; AID 2012, 2009; Eukaryotic translation initiation factor 4H (Homo sapiens), Q15056; eIF4H fluorescence polarization binding assay; inhibition, % at 35 µM;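 active = 50% or more with normal probe brightness, or confirmed in later tests; inconclusive = above 50% with abnormal brightness, or retests that disagree; inactive = below 50% or failed in later tests; about a fifth of its hits are not listed in these tables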;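 note: calls also rest on retests at 20 µM and on dose response follow-up; 0% = protein and probe with vehicle and 100% = probe without protein; strong numbers were not always called active; many hits fall short of the cut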
UUG fidelity – modulators of yeast start codon fidelity, primary screen, whole organism, S. cerevisiae, single point, plate reader | AID 602363, 2012 | S. cerevisiae UUG-firefly luciferase reporter, luminescence/redox ratio | 0.13% of 350,000 active | activity score, % at 18.7 µM;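 active = replicate mean at a twofold rise or more, about +100% in these data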;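 note: firefly luciferase made from a UUG start codon reports start codon fidelity; reporter light over untreated wells divided by growth signal over untreated wells; some hits fall short of that in this replicate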
Env fusion inh – inhibitors of HIV-1 Env-driven cell-cell fusion, primary screen, HeLa-JRFL effector, CEM21 target cells, luciferase. 1.1% of 360,000 active. AID 651610, 2012. inhibition, % at 12.3 µM;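 active = mean replicate inhibition score of at least 50 and every replicate individually at or above 50; inconclusive = only one of the two criteria met; inactive = mean below 50 and not all replicates reaching 50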;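 note: 0% = plate neutral controls and 100% = maraviroc near 300 nM; one replicate is shown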
eIF4H FP inh retest – second read-out of eIF4H FP inh, no call of its own (marks repeat the call); inhibition, %; compound at 20 µM; confirmation average;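 mean of two retest wells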
PABP polyA inh retest – second read-out of PABP polyA inh, no call of its own (marks repeat the call); inhibition, %; compound at 20 µM; confirmation repeats;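 mean of two retest wells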
MT1-MMP act inh RFP – second read-out of MT1-MMP act inh, no call of its own (marks repeat the call); RFP signal change, %; measured here: RFP expression control read;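 0 = vehicle wells; hits needed this value within 50% of zero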
* hit, by the source's call; i = inactive; ? = inconclusive; . = not tested or not shown; & = joins results of further samples.

SMILES | Rce1 inhib | MT1-MMP act inh | MT1-MMP act inh RFP | PABP polyA inh | CSC inhib | eIF4H FP inh | UUG fidelity | Env fusion inh | others
CCOc1ccc(OCC(=O)Nc2ccccc2N2CCCC2)cc1 | i | -3 | -4 | . | -7 | . | 11 | -49
COCCN(CCOC)C(=O)C1CCN(c2ccc(S(=O)(=O)N3CCOCC3)cc2[N+](=O)[O-])CC1 | i | 0 | -2 | . | -2 | . | -12 | -8
S=C(Nc1ccccc1Cl)N(CCN1CCCCC1)Cc1ccco1 | i | 3 | 11 | 1 | . | -4 | -14 | 10
Cc1cc(NC(=O)CN2CCc3ccccc3C2)nc2c1c(=O)oc1ccccc12 | i | -2 | 1 | -1 | -3 | 1 | -8 | 13
O=C(Cn1cnc([N+](=O)[O-])c1)NCc1ccc(F)cc1 | i | 4 | 2 | 24 | . | 3 | -10 | .
O=C(COC(=O)c1ccccc1OCc1ccccc1Cl)NCC1CCCO1 (stereo unspecified) | . | -3 | -4 | . | -11 | . | -7 | .
CC(C)[C@H](NC(=O)c1cccc(CN(Cc2ccccc2)C(=O)/C=C/c2ccccc2)c1)C(=O)O | i | 1 | 1 | . | 15 | . | 22 | 12
Cc1nn(Cc2ccc(Cl)c(Cl)c2)c(C)c1NC(=O)c1noc2c1CCCCC2 | i | 8 | 3 | 2 | . | -1 | -17 | 56*
CCN(CC(=O)NCc1ccco1)S(=O)(=O)c1ccc(F)cc1 | i | -1 | 1 | -5 | -5 | -6 | -4 | 7
CCOC(=O)Cn1c(=O)c2c(nc(Br)n2Cc2ccc(Cl)cc2)n(C)c1=O | i | . | . | -13 | -5 | 4 | . | .
CCOc1cc(Cl)c(S(=O)(=O)NCCCN2CCOCC2)cc1Cl | i | 4 | 1 | 16 | . | -10 | -15 | 6
COc1ccc(CC(N)c2csc(NC(=O)c3cccs3)n2)cc1 (stereo unspecified) | . | -2 | -4 | . | . | . | -18 | 15
CCNC(=O)CSc1nnc(-c2cc(-c3ccc(Cl)cc3)nc3ccccc23)o1 | i | 3 | 5 | -3 | . | -4 | -15 | .
C/C(=N\NC(=O)CC1(C)OCCO1)c1cccs1 | i | -1 | 5 | -6 | 7 | -4 | . | 20
CC(=O)Nc1ccc(S(=O)(=O)NCCc2ccc(S(N)(=O)=O)cc2)cc1 | i | -2 | 0 | -4 | -24 | -11 | -16 | -48
CC(C)(C)c1cnnn1-c1ccc(C(=O)CCl)cc1 | i | -4 | 3 | -4 | -11 | -2 | -14 | -44
O=C(NC(=S)Nc1ccc2oc(-c3ccncc3)nc2c1)c1ccccc1F | i | 7 | -6 | 12 | -19 | 0 | -21 | 2
N#CC1=C(N)Oc2n[nH]c(-c3ccccc3)c2C12C(=O)Nc1ccccc12 (stereo unspecified) | i | -4 | 0 | 2 | -7 | -5 | -12 | -12
Cc1nn(-c2ccccc2)c(Cl)c1/C=N/N1CCN(c2ccccn2)CC1 | . | 3 | -2 | -6 | -2 | 6 | -5 | 1
Cc1cc(=O)[nH]c(SCC(=O)NCC2CCCO2)n1 (stereo unspecified) | i | 1 | 0 | -1 | -19 | -19 | . | 3
O=C(N/N=C(/CC(=O)c1cccs1)C(F)(F)F)c1ccc(O)cc1 | i | 9 | -7 | 6 | . | 3 | -1 | -29
COc1ccccc1-n1cnnc1SCC(=O)Nc1cccnc1Cl | i | -1 | 0 | 3 | -2 | -4 | -18 | 15
Cc1nn2c3c(cnc2c1-c1ccc(Cl)cc1)C(=O)CC(c1ccco1)C3 (stereo unspecified) | i | 0 | 5 | 32* | -7 | 61* | 4 | -1 | eIF4H FP inh retest=81*;PABP polyA inh retest=86*
Cc1n[nH]c(C)c1Sc1ccccc1N=Cc1cc([N+](=O)[O-])ccc1O | i | . | . | 120 | -6 | 126 | . | . | eIF4H FP inh retest=2;PABP polyA inh retest=-1
C1CC(CN2CCOCC2)CN(c2nc3nonc3nc2N2CCSCC2)C1 (stereo unspecified) | i | -4 | 1 | 11 | -18 | 5 | . | 8
S=c1[nH]nc(Cc2ccccc2)n1-c1ccc(Cl)cc1 | i | -1 | 3 | -5 | -13 | 0 | . | -1
Cc1cc(C)c(NC(=O)COc2nc3ccccc3nc2C)c(C)c1 | i | 2 | -6 | -1 | 2 | -5 | . | .
O=C1/C(=C/c2cccnc2)SC(=S)N1NS(=O)(=O)c1ccccc1 | i | 8 | 9 | 11 | -4 | -9 | -28 | 0
O=C(CN1CCN(S(=O)(=O)c2ccc(Br)s2)CC1)N1CCCCC1 | . | 1 | -2 | . | . | . | -5 | -3
COc1ccccc1/C=C/C=N/n1c(-c2ccccn2)n[nH]c1=S | i | 3 | 1 | 17 | -8 | -6 | -20 | -21
Cc1ccc(-c2cc(C(=O)Nc3cnn(C45CC6CC(CC(C6)C4)C5)c3)no2)cc1 | i | 9 | -2 | -13 | -11 | -7 | -3 | .
Cc1cc(C)cc(N2C(=O)CSC2c2cccs2)c1 (stereo unspecified) | i | -1 | -1 | 8 | 3 | 6 | -8 | -53
C/C(=N\NC(=O)c1cc(C(C)C)[nH]n1)c1ccncc1 | i | 1 | 0 | -3 | . | -9 | -13 | -1
CC(C)(C)OC(=O)C[C@@H]1C/C=C\C[C@H](CC(=O)N(CCO)Cc2ccccc2)C(=O)NCCOC1=O | . | 1 | 2 | . | . | . | 9 | -38
O=C(O)CCCNS(=O)(=O)c1ccc2ccccc2c1 | i | 3 | 2 | -4 | -8 | 11 | 16 | -31
CC(C)(C)OC(=O)NCCCCC1=CC2=CC(=O)C(C)(O)C(=O)C2=CO1 (stereo unspecified) | i | -1 | 8 | . | -26 | . | -9 | 2
CCOc1ccc2[nH]cc(C(=O)N3CCN(C4CCCCC4)CC3)c(=O)c2c1 | i | 8 | -2 | . | 1 | . | -3 | -12
Cc1ccc(C(=O)NC(=S)Nc2ccc(N3CCOCC3)cc2)cc1C | i | 3 | -10 | 2 | 19 | -13 | . | 2
Cc1occc1C(=O)Nc1nnc(-c2ccncc2)s1 | i | 1 | -4 | 5 | 6 | 1 | -11 | 4
Clc1cncc(Cl)c1N/N=C/c1ccccc1 | . | -1 | 1 | 3 | 11 | -8 | . | -27

Overlap with the part before: 2 compounds, then new ones.
SMILES | Rce1 inhib | MT1-MMP act inh | MT1-MMP act inh RFP | PABP polyA inh | CSC inhib | eIF4H FP inh | UUG fidelity | Env fusion inh | others
Cc1occc1C(=O)Nc1nnc(-c2ccncc2)s1 | i | 1 | -4 | 5 | 6 | 1 | -11 | 4
Clc1cncc(Cl)c1N/N=C/c1ccccc1 | . | -1 | 1 | 3 | 11 | -8 | . | -27
C[C@@H]1CN([C@@H](C)CO)C(=O)c2cc(Br)cnc2O[C@H]1CN(C)Cc1cccnc1 | . | 3 | 0 | . | . | . | -20&-9 | 3
CC1CCCC(C)N1C(=O)c1cc(-c2ccc3c(c2)OCO3)on1 (stereo unspecified) | i | 3 | 7 | 12 | 12 | 8 | -14 | -83
O=C(COc1ccc(C2SCCS2)cc1)NNC(=O)C(Cl)Cl | i | 0 | 1 | 9 | 0 | 17 | 1 | -13
COc1ccc(C(C)=O)cc1CN1C(=O)C(C)ON=C1c1ccccn1 (stereo unspecified) | . | 6 | 7 | . | . | . | -37 | -21
O=C(NCC(=O)N1CCN(C(c2ccccc2)c2ccccc2)CC1)c1ccc(Br)o1 | i | 3 | 2 | 2 | 24 | -2 | -8 | 1
COCCN(C(=O)CSc1ncc(C(F)(F)F)cc1Cl)c1c(N)n(Cc2ccccc2)c(=O)[nH]c1=O | i | 2 | 4 | -7 | -12 | -7 | . | 7
CC1(C)NC(=O)N(CC(=O)OCC(=O)Nc2cccc(S(N)(=O)=O)c2)C1=O | i | -3 | 3 | -11 | 3 | 4 | . | 17
O=C(NCC(=O)N(c1cccc(F)c1)C(C(=O)NC1CCCC1)c1cccnc1)c1cccs1 (stereo unspecified) | i | -2 | -1 | -4 | -14 | -4 | . | ?
COc1ccc(C(C(=O)NC2CCCCC2)N(C(=O)c2ccccn2)c2cccnc2)c(OC)c1 (stereo unspecified) | i | -2 | -1 | -3 | . | 4 | 2 | -4
NC(=O)CCCn1c(C(=O)c2cc(Cl)c(N)c(Cl)c2)c2ccc([N+](=O)[O-])cc2[n+]1[O-] | i | -3 | -9 | . | 15 | . | -13 | 15
CN1CCN(C(=O)c2cc3c(c(-c4cccc(-c5cc6ccccc6o5)c4)n2)[C@@H](CCO)N(S(=O)C(C)(C)C)C3)CC1 (stereo partly specified) | . | 3 | 6 | . | . | . | -6 | -27
CCOc1ccc(C(C)NC(=O)c2cc(=O)[nH]c3ccccc23)cc1OCC (stereo unspecified) | i | -1 | 3 | 4 | -7 | -9 | -18 | -35
CC(C)c1nc2sc3c(c2c(=O)[nH]1)CC(C)(C)OC3 | i | -2 | 0 | 4 | -7 | -2 | -12 | -4
O=c1[nH]c(CCl)nc2cc(-c3ccc(Cl)cc3)sc12 | i | 3 | -3 | 7 | 57 | -3 | . | .
CCOC(=O)c1cccc(NC(=O)CN(C)S(=O)(=O)c2cnc[nH]2)c1 | i | -2 | 3 | 6 | -19 | -16 | -4 | .
Nn1c(SCc2ccc(Br)cc2)nnc1-c1ccccn1 | i | -1 | 2 | 3 | -5 | 9 | . | -9
CN(C)C(=O)COc1ccc2c(-c3ccccc3)cc(=O)oc2c1 | i | -6 | 1 | -15 | . | -9 | -9 | 13
COc1ccc(-c2c(NC(=O)c3ccco3)n(-c3ccc(C)cc3)nc(C)c2=O)cc1 | i | 2 | 5 | 0 | -1 | 3 | -6 | -8
Cc1cccc(N(CC(=O)N2CCCC2)S(C)(=O)=O)c1C | . | 0 | -2 | . | . | . | -25 | -4
CS(=O)(=O)N(Cc1ccc(Cl)cc1)c1ccc(C(=O)N2CCN(c3ccccc3)CC2)cc1 | i | 0 | -8 | 49 | 8 | -6 | -10 | -5
Cc1ccccc1C(=O)N1CCC(C(=O)Nc2nccs2)CC1 | i | -2 | 3 | -13 | -4 | -2 | -2 | 9
C=CCn1c(SCC(=O)c2ccc(O)c(O)c2)nnc1-c1cccnc1 | i | 5 | 2 | 44 | 1 | 83 | . | -2 | eIF4H FP inh retest=-3;PABP polyA inh retest=0
COc1ccc(C(=O)NC2CC2)cc1OC1CCN(Cc2ccccc2)CC1 | i | -5 | -4 | 0 | -3 | -4 | -19 | -318
CCCOc1ccc(NC(=O)C2CC(=O)N(C)C(=Nc3cccc(OC)c3)S2)cc1 (stereo unspecified) | i | -1 | -1 | -5 | . | -4 | -4 | 3
Cc1cc2c(cc1S(=O)(=O)NCc1ccccc1)n(C)c(=O)c(=O)n2C | i | 1 | 1 | -9 | -2 | -3 | 3 | 3
CCCCCCC(C)NC(=S)Nc1cc(S(=O)(=O)N(C)C)ccc1C (stereo unspecified) | i | -5 | -9 | -5 | 12 | -4 | -22 | -61
C[C@@]12C(=O)Nc3cc(Cl)ccc3C(=O)N1[C@H]1c3ccccc3OC[C@@H]1[C@@H]2c1ccccc1 | . | -33 | -18 | . | -21 | . | -8 | .
